NPYLR7 agonist: mosquito NPYLR7 agonism; HEK293T NPYLR7/Galpha15, GCaMP6s calcium fluorescence; hit rate 0.15% among 270,000; activation, % at 10 µM; in the data active = activation above about 40%;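 note: 0% = vehicle and 100% = reference agonist at the receptor; some compounds past the cut are filed as inactive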
NPYLR7 agonist max-min: second read-out of NPYLR7 agonist, no call of its own (marks repeat the call); activation, %; measured here: Max-Min RFU normalised activation; some inactives read as strong as hits;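 span of the calcium signal over five minutes; 0% = vehicle and 100% = native peptide agonist; compound fluorescence can raise it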
* marks the source's active call; other numbers are inactive results; & = joins results of further samples.

Each structure is followed by: NPYLR7 agonist	NPYLR7 agonist max-min
> C=CC[C@@H]1CC=C[C@@H](c2ccccc2)N1Cc1cnc(C)[nH]1
 : 2	-2
> COc1cc2c(cc1CN1CCCN(c3ccccc3)CC1)OCO2
 : 0	2
> N#Cc1nc2n(c1C#N)CN(CCc1ccc(Cl)cc1Cl)CN2
 : 11&-4	9&-4
> CCCc1cc(C(=O)N2CCC3(CC2)c2ccccc2[C@@H](N)[C@@H]3O)no1
 : 0	1
> c1ccc(CCNc2nc(-c3ccco3)nc3ccccc23)cc1
 : -2	12
> CCOC(=O)N1CCN(C(=O)c2cc(-c3ccc(C)o3)nn2-c2cccc([N+](=O)[O-])c2)CC1
 : -6	-5
> CS(=O)(=O)NC1CCN(Cc2cccn2-c2ccc(Cl)cn2)CC1
 : 6	3
> CCOC(=O)C(C)/C(C)=N\NC(=O)CCC(=O)Nc1cc(C)ccc1C (stereo not drawn)
 : 5	0
> CCn1nc(C(C)C)cc1C(=O)NCC1CCCN(S(C)(=O)=O)C1 (stereo not drawn)
 : 7	5
> CCNC(=O)CC1C(=O)N(Cc2ccccc2)C(=S)N1NC(=O)c1ccc(Cl)cc1 (stereo not drawn)
 : 3	2
> CCCN(C)C(=O)c1ccc(CSc2nnc(-c3cccc(OC)c3)n2-c2ccc(C)cc2)cc1
 : -1	10
> CCOC(=O)C(Cc1ccc(Cl)cc1)NC(=O)CCC(=O)N1CCN(c2ccccn2)CC1 (stereo not drawn)
 : -5	-14
> Fc1ccc(CSc2nnc3n2CCCN3)cc1
 : -4	-4
> C=CCn1c(SCC(=O)c2ccc(OC)cc2)nc2sc3c(c2c1=O)CCC3
 : -8	-13
> CC1(C(=O)Nc2cccc3ncccc23)CCN1C(=O)Cc1ccc(-c2ccccc2)cc1 (stereo not drawn)
 : 4	3
> CCN(CC)c1ncccc1CNc1ccnc(N)n1
 : 11	3
> COc1cccc(C2NC(=O)N(C)C3=C2C(=O)N(c2cccc(F)c2)C3)c1 (stereo not drawn)
 : -4	3
> CN(C)CCCN(C(=O)CN1C(=O)CCC1=O)c1nc2ccc(F)cc2s1
 : -1	-2
> Cc1onc(-c2ccccc2Cl)c1C(=O)Nc1ccc2c(C)cc(=O)oc2c1
 : -9	-10
> Cc1ccsc1C(=O)N1CCC1(C)C(=O)NS(=O)(=O)c1ccccc1Cl (stereo not drawn)
 : 0	-2
> Fc1ccc(NCc2noc(Cc3ccccc3)n2)cc1F
 : 4	4
> CCOC(=O)C1CCN(CC(=O)N2N=C(c3ccc(OC)cc3)CC2c2ccccc2C)CC1 (stereo not drawn)
 : -1	5
> O=C(NCc1cccc(Cl)c1)c1ccccc1OC(F)F
 : -17	-17
> N#Cc1ccc(F)c(CSCc2cccc(OCC(N)=O)c2)c1
 : 2	0
> CCOC(=O)C1=C(CC)Nc2ccccc2N=C1NC(=O)CCN1C(=O)C2CCCCC2C1=O (stereo not drawn)
 : 3	11
> CCOC(=O)c1sc(NC(=O)c2ccc(Br)cc2)nc1C
 : -1	-4
> C=c1occc1=C1NN=C(SC(CC)C(=O)Nc2ccc(F)cc2)O1 (stereo not drawn)
 : -7	-12
> CON
 : -2	-8
> CCOCCCN(CC(=O)N(Cc1ccc(F)cc1)Cc1ccc(C)s1)C(=O)c1ccco1
 : 5	10
> COc1ccc(S(=O)(=O)N2CCSC2c2ccc(Cl)cc2)cc1 (stereo not drawn)
 : 0	-2
> Cn1cc(C(=O)NC2CCCCCC2)c2nn(-c3ccccc3)c(=O)c-2c1
 : 14	12
> N#CCSc1nnc(-c2c[nH]c3ccccc23)n1C1CC1
 : 9	14
> Cc1ccc2nc(-c3ccccc3OCC(=O)O)oc2c1
 : -7	-12
> CC(C)(CNC(=O)c1ccccn1)c1ccccc1
 : -1	-1
> Cc1cccc2c1C(=O)NC1(CCN(C(=O)CSc3ccccc3)CC1)N2
 : 0	6
> Cc1cccc(Oc2cc(N3CCNC(C)C3)ncn2)c1 (stereo not drawn)
 : 14	15
> CC(C)S(=O)(=O)c1ncc(CN2CCc3sccc3C2)n1CCc1ccccc1
 : 7	4
> CCOc1cc(C=O)ccc1OCC(=O)N(C)C
 : -6	-6
> NC(=O)C1CN(C2CCCCc3ccccc32)CCO1 (stereo not drawn)
 : 0	-4
> Cn1ccnc1CN(Cc1cc(F)c(F)c(F)c1)C1CC1
 : -2	2
> CCNc1ncc(C(=O)N2CCC(c3[nH]ncc3Cc3ccccc3)CC2)cn1
 : 15	9
> Cn1ccc(NC(=O)C(C)(C)Oc2ccc(F)cc2)n1
 : 10	6
> CNCC1CC(c2ccc(Cl)cc2)=NO1 (stereo not drawn)
 : -6	-11
> O=C(CN1CC(C(=O)N2CCCCC2)Oc2ccccc21)NC1CCCc2ccccc21 (stereo not drawn)
 : 3	2
> CN(C(C1CC1)C1CC1)S(=O)(=O)c1c[nH]c2ncccc12
 : 2	0
> O=C(CCN1Cc2ccccc2OC(c2ccccc2F)C1)NC(c1ccccc1)c1ccncc1 (stereo not drawn)
 : 18	13
> Cc1ccccc1-c1onc(C)c1C(=O)NCc1ccc(Cl)cc1
 : -1	3
> OC(CNC12CC3CC(CC(C3)C1)C2)COCc1ccco1 (stereo not drawn)
 : 6	7
> Cc1cc(C(=O)n2nc(C(F)(F)F)nc2N)c(C)n1CC1CC1
 : 15	6
> Cc1cc(NC(=O)c2ccc(S(=O)(=O)N(C)C)cc2)n(-c2nc(-c3ccccc3)cs2)n1
 : -12	-17

Gathered by group, the entries above containing a Cl atom.
Each structure is followed by: NPYLR7 agonist	NPYLR7 agonist max-min
> N#Cc1nc2n(c1C#N)CN(CCc1ccc(Cl)cc1Cl)CN2
 : 11&-4	9&-4
> CS(=O)(=O)NC1CCN(Cc2cccn2-c2ccc(Cl)cn2)CC1
 : 6	3
> CCNC(=O)CC1C(=O)N(Cc2ccccc2)C(=S)N1NC(=O)c1ccc(Cl)cc1 (stereo not drawn)
 : 3	2
> CCOC(=O)C(Cc1ccc(Cl)cc1)NC(=O)CCC(=O)N1CCN(c2ccccn2)CC1 (stereo not drawn)
 : -5	-14
> Cc1onc(-c2ccccc2Cl)c1C(=O)Nc1ccc2c(C)cc(=O)oc2c1
 : -9	-10
> Cc1ccsc1C(=O)N1CCC1(C)C(=O)NS(=O)(=O)c1ccccc1Cl (stereo not drawn)
 : 0	-2
> O=C(NCc1cccc(Cl)c1)c1ccccc1OC(F)F
 : -17	-17
> COc1ccc(S(=O)(=O)N2CCSC2c2ccc(Cl)cc2)cc1 (stereo not drawn)
 : 0	-2
> CNCC1CC(c2ccc(Cl)cc2)=NO1 (stereo not drawn)
 : -6	-11
> Cc1ccccc1-c1onc(C)c1C(=O)NCc1ccc(Cl)cc1
 : -1	3

Later entries
Each structure is followed by: NPYLR7 agonist	NPYLR7 agonist max-min
> CCCn1c(O)c(N=NC(=O)c2ccccc2)c2ccccc21
 : -4	-12
> O=C(Nc1ccccc1C(=O)NCC1CCCO1)c1ccco1 (stereo not drawn)
 : 8	6
> COc1ccccc1C1NC(=O)N(C)C2=C1C(=O)N(CCC(=O)N1CCOCC1)C2 (stereo not drawn)
 : -1	5
> CCNC(=O)N1CCCC(OCc2cccc(C(F)(F)F)c2)C1 (stereo not drawn)
 : -6	1
> O=C(NCc1cc2ccccc2[nH]1)C1CC(c2ccc(Cl)s2)=NO1 (stereo not drawn)
 : -8	747
> COc1ccccc1C(=O)C1CCCN(C(=O)CCc2ccc3c(c2)OCO3)C1 (stereo not drawn)
 : -1	-3
> Cc1cc(=O)[nH]c(-n2nc(C)c(CCC(=O)Nc3cccc(Cl)c3C)c2C)n1
 : 0	-2
> CC(=O)N(CCN1CCCC1)CC(=O)N(Cc1ccc(F)cc1)Cc1ccc(C)s1
 : 5	12
> CCN(CCN1CCOCC1)C(=O)c1cccnc1
 : 1	-1
> O=S(=O)(NC1c2ccccc2Oc2ccccc21)c1ccc(Cl)s1
 : 2	-1
> C=CCn1c(=NC(=O)CN2C(=O)CCC2=O)sc2cccc(OCC)c21
 : 2	-1
> CCCc1[nH]n(-c2ccc(F)cc2)c(=O)c1C1=C(N(C)CC)C(=O)N(CC2CCCO2)C1=O (stereo not drawn)
 : 29	45
> C=CCN1C(=O)C(=Cc2ccc(OC)cc2)SC1=S
 : -5	-12
> CCOC(=O)CN(C)C(=O)CC(c1ccccc1)c1ccccc1C (stereo not drawn)
 : -3	-9
> CN1CCN(c2ccc(C(=O)N3CCC(N4CCOCC4)CC3)cn2)CC1=O
 : 4	1
> Cc1cccc(N2CCN(c3cc(C)cc4ncnn34)CC2)c1
 : 7	1
> O=C(NCCO)c1cccc(-c2ccc3nnc(-c4cccc(OC(F)(F)F)c4)n3c2)c1
 : 11	4
> CCCCc1nc(C)c(C(=O)N(C)Cc2c(C)noc2C)s1
 : 13	8
> Cc1ccc(-c2nc(N3CCN(C(=O)c4ccc(C(F)(F)F)cc4)CC3)c3ccccc3n2)cc1
 : 6	19
> COc1ccc(NC(=O)c2ccc(N3C(=O)C4C5C=CC(C5)C4C3=O)cc2)cc1 (stereo not drawn)
 : 1	-1
> COC[C@@H]1CCCN1C(=O)Cc1ccc(Nc2cc(N(C)c3cccc(C)c3)ncn2)cc1
 : -1	-3
> CCOCCOC(=NC(C)CC)NC(=O)c1cccc(F)c1 (stereo not drawn)
 : -5	-6
> N#Cc1cnn(C(=O)COc2ccc(Cl)cc2)c1N
 : 1	-1
> Nc1cnc(-c2ccc(-c3ccn[nH]3)cc2)cn1
 : -4	-4
> CCN1CC(NC(=O)c2c(O)cccc2O)CC1=O (stereo not drawn)
 : -3	-6
> O=C(NNC(=O)c1ccc(F)cc1)c1ccc(F)cc1
 : 5	4
> COC(=O)c1c(NC(=O)c2cnn3c(C(F)(F)F)cc(-c4ccccc4)nc23)sc2c1CCCCC2
 : -9	3
> CCOC(=O)Cc1csc(NC(=O)c2ccc(S(C)=O)cc2)n1 (stereo not drawn)
 : 8	6
> O=C(C1CCN(S(=O)(=O)c2ccc3c(c2)CCC3)CC1)N1CCCC1
 : 22	15
> CCOC(=O)c1ccccc1NC(=O)CSc1ccc2nnc(-c3ccc(OC)cc3)n2n1
 : 7	8
> CCOc1ccc(N2CCN(C(=O)c3ccc(C(F)(F)F)cc3)C(C)C2=O)cc1 (stereo not drawn)
 : 4	19
> CCOc1ccc(-c2nc(N3CCN(c4ccccc4Cl)CC3)c3ccccc3n2)cc1
 : -3	-8
> Cc1ccc(-n2nnnc2SCc2cc3c(cc2Br)OCO3)c(C)c1
 : 8	6
> Cc1nc(-n2cnnc2S(C)=O)c2c3c(sc2n1)CCCC3 (stereo not drawn)
 : -1	10
> COc1cc([N+](=O)[O-])ccc1N1C(=O)C2C3C=CC(C3=C(C)C)C2C1=O (stereo not drawn)
 : 2	1
> O=C1CCCCCN1CCCNC(=O)N1CCC(Cc2ccccc2)CC1
 : 0	-4
> CC1CCN(CN2C(=O)NC(C)(CCc3ccc(OC(F)F)cc3)C2=O)CC1 (stereo not drawn)
 : -6	-8
> CC(C(=O)N(Cc1cscn1)c1ccccc1)S(C)(=O)=O (stereo not drawn)
 : 13	9
> Cc1ncsc1C(=O)OCCC1CCCO1 (stereo not drawn)
 : -1	-6
> Cc1ccc2c(CSc3nnc(-c4cccnc4)n3Cc3ccco3)cc(=O)oc2c1C
 : 0	11
> O=C(Nc1nc(OCCN2CCCC2=O)cnc1/C=C\c1ccccc1)c1cc2ccccc2s1
 : -22	-23
> CCOC(=O)c1cnc(-c2cccc(C(F)(F)F)c2)nc1NCc1cccc(F)c1F
 : 9	2
> O=C(Nc1nnc(C2CC2)s1)[C@H](Cc1ccccc1)NC(=O)N1CCOCC1
 : 0	-6
> O=C(c1c(F)cccc1C(F)(F)F)N1CCN(c2nccc(-c3ccc(Oc4ccccc4)cc3)n2)CC1
 : 10	4
> CNC(=O)c1ccc(CN(C(=O)COc2ccc(Br)cc2F)C2CC2)cc1
 : 4	3
> CCc1c(C(=O)NC2CC2)c(CC(C)C)nn1-c1ccc(Cl)c(Cl)c1
 : -3	12
> COC(=O)c1ccc(C(=O)OC)c(NC(=O)c2nn(-c3ccccc3)c(=O)cc2OC)c1
 : 4	3
> NC(=O)[C@@H]1Cc2ccccc2CN1C(=O)C1=NOC(c2ccccc2)C1 (stereo partly drawn)
 : 8	6
> CC(C)(C)c1[nH]ncc1/C=C/c1nc2ccccc2o1
 : 4	0
> COc1ccc(CN(C(=O)/C=C/c2ccc([N+](=O)[O-])cc2)C(C)C)cc1OS(C)(=O)=O
 : -7	-3

Going on with the list.
Each structure is followed by: NPYLR7 agonist	NPYLR7 agonist max-min
> COCCN(CC(=O)N(CCc1c[nH]c2ccccc12)Cc1ccc(C(F)(F)F)cc1)C(=O)NC1CCCCC1
 : -1	-9
> CCc1ccc(-c2nc(C(=O)NNC(=O)N3CC(C)OC(C)C3)cs2)cc1 (stereo not drawn)
 : 2	-3
> CC(C)N(C(=O)Cn1c(C2CC2)nc2ccccc21)c1ccccc1
 : 5	0
> COc1ccccc1-n1c(=O)c2ccc(Cl)cc2n(C(C)C(=O)NC2CC2)c1=O (stereo not drawn)
 : -4	-1
> COC(=O)C(c1ccc(OC)cc1)C1C=CC(NC(=O)c2cc(F)c(F)cc2F)C1 (stereo not drawn)
 : 4	7
> CCn1nc(C(C)C)cc1-c1n[nH]c(Cc2ccccc2)n1
 : 3	17
> CC(C)c1nc(CC(=O)NCc2ccc(C#N)cc2)cs1
 : -1	-2
> CC(C)n1c(=N)c(C#N)cc2c(=O)n3ccccc3nc21
 : 0	-3
> CC(C)COc1nc(-c2ccc(Cl)c(Cl)c2)n(-c2ccc(NC(=O)C(C)(C)CCl)cc2)n1
 : 6	4
> NC(=O)CC1C=CS(=O)(=O)C1 (stereo not drawn)
 : 5	4
> Cc1ccoc1C(=O)NNC(=O)c1cccc(S(=O)(=O)N(C)C)c1
 : 11	15
> COc1ccc(OC)c(/C=N\n2cnnc2-n2nc(C)cc2C)c1
 : 2	1
> CC(C)Cc1noc(CN2CCC3CCC(C2)N3C)n1 (stereo not drawn)
 : -4	-6
> Cc1ccc(C(=O)Nc2ccc(N3CCNC(=O)C3)c(Cl)c2)cc1
 : 0	-2
> O=C(Nc1cccc(F)c1)C(C1CCCC1)N1CCN(C(=O)C2CC2)CC1 (stereo not drawn)
 : -2	6
> O=C(c1[nH]c2ccccc2c1Br)N1CCCCCCC1
 : 9	6
> Cc1ccsc1-c1c2c(nc3sc(C#N)c(N)c13)CCCC2
 : -1	-4

Some of the compounds tested; rates above refer to the full screens.
